GLA inh pH 4.5: qHTS Assay for Inhibitors of Human alpha-Galactosidase at pH 4.5; Alpha-galactosidase A (Homo sapiens), P06280; purified enzyme, 4-MU-alpha-Gal fluorescence, pH 4.5; activity change, negative = inhibition, % at 105 µM; 230,000 tested, under 10 active; AID 1467, 2008; inconclusive = small, poorly fitted or top-dose-only inhibition, or a rising curve; inactive = flat fitted curve, though single readings scatter; no compound was filed as active;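 note: 0% = full activity with enzyme and -100% = basal without enzyme; dose as in the result columns while the protocol names 77 µM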
Rango complex inh: qHTS Assay for Inhibitors of Rango (Ran-regulated importin-beta cargo) - Importin beta complex formation | Importin subunit beta-1 (Homo sapiens), Q14974 | Rango CFP/YFP FRET sensor + importin beta, 45 min | Potency, µM (titrated, usually from 92.2 µM), without a hit: top-dose inhibition of complex formation | 0.031% of 340,000 active; active = rising FRET ratio curve, often small or poorly fitted; inconclusive = mostly compound fluorescence or quenching in the first reads; inactive = flat curves in all reads;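 note: potency is the fitted concentration of half-maximal effect; 0% = DMSO wells and 100% = buffer wells lacking importin beta; nearly all actives have a fitted effect of over 15% in size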
Target sequence (Q14974 whole entry, looked up): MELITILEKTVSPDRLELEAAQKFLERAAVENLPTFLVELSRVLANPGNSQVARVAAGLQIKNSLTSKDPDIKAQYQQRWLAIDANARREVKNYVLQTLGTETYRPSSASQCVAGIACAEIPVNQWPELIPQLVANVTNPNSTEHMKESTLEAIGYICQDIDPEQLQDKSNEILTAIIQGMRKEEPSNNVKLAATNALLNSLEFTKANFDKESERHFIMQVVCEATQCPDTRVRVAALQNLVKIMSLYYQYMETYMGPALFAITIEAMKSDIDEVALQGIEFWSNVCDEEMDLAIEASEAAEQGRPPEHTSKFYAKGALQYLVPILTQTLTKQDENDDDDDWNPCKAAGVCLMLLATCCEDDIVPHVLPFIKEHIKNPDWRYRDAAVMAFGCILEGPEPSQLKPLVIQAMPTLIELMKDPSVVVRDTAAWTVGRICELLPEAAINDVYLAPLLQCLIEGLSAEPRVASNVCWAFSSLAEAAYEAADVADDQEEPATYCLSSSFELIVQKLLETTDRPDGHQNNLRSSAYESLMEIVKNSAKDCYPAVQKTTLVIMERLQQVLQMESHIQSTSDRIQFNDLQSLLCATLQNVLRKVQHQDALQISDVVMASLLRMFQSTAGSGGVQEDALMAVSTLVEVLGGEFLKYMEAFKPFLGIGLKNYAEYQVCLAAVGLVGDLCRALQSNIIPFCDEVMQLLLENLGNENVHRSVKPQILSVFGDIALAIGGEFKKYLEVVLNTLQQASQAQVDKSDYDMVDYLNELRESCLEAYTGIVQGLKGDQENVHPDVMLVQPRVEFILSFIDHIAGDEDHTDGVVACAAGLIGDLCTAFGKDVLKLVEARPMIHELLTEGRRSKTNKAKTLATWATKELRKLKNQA
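FRET biosensor Rango (snurportin 1 IBB between N-terminal EYFP and C-terminal Cerulean), 50 nM in PBS/1 mM DTT/0.02% Tween-20/0.1% BSA, preincubated 5 min RT with compound; 0.125 microM importin beta added, 45 min RT, CFP/YFP FRET ratio read.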
Rango release inh: qHTS Assay for Inhibitors of RanGTP induced Rango (Ran-regulated importin-beta cargo) - Importin beta complex dissociation. AID 540253, 2011. Snurportin-1 (Homo sapiens) + GTP-binding nuclear protein Ran (Homo sapiens) + Importin …. Potency, µM (highest dose often 46.1 µM), inactives show top-dose activity change, negative = inhibition. Biochemical FRET Rango-importin beta, RanGTP-induced dissociation. 0.071% of 340,000 active; active means falling FRET ratio curve, often poorly fitted, with flat reads before Ran was added; inconclusive means other falling curves, or compound fluorescence or quenching; inactive means flat or rising ratio curve;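 note: potency is the fitted concentration of half-maximal effect; % of control where 0% means no effect; nearly all actives have a fitted effect of over 45% in size; -100% = wells without RanGTP and RCC1; the record marks most hits as doubtful in a second field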
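Quantitative HTS using a FRET biosensor: 0.1 uM Rango, 0.25 uM importin beta, 0.6 uM Ran, 2 mM GTP, 0.2 uM RCC1 final, PBS with DTT, Tween-20 and BSA. Post-read taken 45 min after Ran addition.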
miR-21 reporter: qHTS Assay for Modulators of miRNAs and/orActivators of miR-21; HeLa miR-21 FLuc reporter, luciferase, 48 h; AID 2288, 2010; 340,000 tested, under 10 active; Potency, µM (top dose mostly 38.3 µM), without a hit: at the highest dose reporter change, positive = more light; active = well fitted rising curve with a large enough effect; inconclusive = small, poorly fitted or top-dose-only effect; inactive = no such curve, though single readings can be large or run the other way;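 note: % of control where 0% means no effect; miR-21 action dims this reporter so a rising signal means less miR-21 action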
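HeLa miR-21-FLuc reporter line, endogenous miR-21; 2000 cells/well in DMEM/10% FBS; compound titration up to ~40uM final, 48 h, 37 degree Celsius; luciferase detection reagent, 15 min lysis, CCD luminescence.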
Active calls of the source: *; ? = inconclusive; nt = no result given; [ ] = another dose, or the depositor's remark. The list is partial, so the mix of outcomes need not match the whole.

SMILES	GLA inh pH 4.5	Rango complex inh	Rango release inh	miR-21 reporter
O=C(Nc1nnc(COc2ccccc2F)s1)Nc1ccccc1F	-6	-0.5%	-1%	-2%
CS(=O)(=O)N1CCc2cc(NC(=O)c3ccc(Cl)cc3Cl)ccc21	0	-1.9%	14%	-17%
Cc1noc(C)c1C(=O)NCc1ccco1	-2	-4.6%	2%	0%
O=C(COC(=O)C1CC(=O)N(Cc2ccccc2)C1)Nc1cccc([N+](=O)[O-])c1 (stereo not drawn)	nt	-4.5%	1%	nt
O=C(CCl)NCCN1C(=O)S/C(=C\c2cccnc2)C1=O	9	-1.0%	0%	21%
CCc1c(C)nc(N)n2c(SCC(=O)Nc3ccccc3OC)nnc12	-3	3.7%	6%	2%
Cc1nn(-c2ccccc2)c2c1C(c1cccc([N+](=O)[O-])c1)N(c1ccccc1)C(=O)N2 (stereo not drawn)	-2	-1.1%	-5%	-5%
CC(=O)N1CCN(S(=O)(=O)c2cccc(C(=O)NNC(=O)c3ccc(Br)cc3)c2)CC1	nt	-1.6%	-8%	nt
O=C(c1cc(O)c(O)c([N+](=O)[O-])c1)c1ccccc1F	-4	1.6%	-2%	nt
Cn1cccc1C(=O)OCc1cc(Cl)cc2c1OCOC2	-5	5.8%	2%	-76%
C=CCN1CC(C)/C(=N\O)CC1C (stereo not drawn)	2	-2.1%	-21%	-3%
CCOc1ncccc1C(=O)N1CCN(S(=O)(=O)c2ccc3ccccc3c2)CC1	0	-2.5%	3%	-2%
CC[N+](CC)(CCCCS(=O)(=O)[O-])CCNP1(=O)C=C(c2ccccc2)OC(c2ccccc2)=C1	-13	0.0%	-8%	0%
CCN(C(=O)COC(=O)c1ccccc1NCc1ccco1)c1c(N)n(Cc2ccccc2)c(=O)[nH]c1=O	nt	-3.8%	33%	nt
CCc1ccc(NC(=O)C2CCN(S(=O)(=O)c3cccs3)CC2)cc1	nt	2.7%	10%	12%
COc1ccccc1/C=C/C=N/NC(=O)c1ccncc1	-5	-2.4%	14%	-5%
COCCCNC(=O)c1ccc2c(=O)n(Cc3ccccc3OC)c(=S)[nH]c2c1	nt	-0.6%	-3%	3%
CC(=O)N(c1ccccc1)c1nc(/C=C/C(=O)O)cs1	-1	-1.2%	-13%	-4%
CCOc1ccc(NC(=O)CSC2=NN3CCCC(=O)N=C3S2)cc1	nt	0.1%	2%	7%
CCc1[nH]nc(C(=O)N2CCCC(C(=O)c3cccc(OC(C)C)c3)C2)c1C (stereo not drawn)	nt	-0.5%	-6%	-6%

An excerpt from above in order of molar mass, smallest number first.
SMILES	GLA inh pH 4.5	Rango complex inh	Rango release inh	miR-21 reporter
CC(=O)N(c1ccccc1)c1nc(/C=C/C(=O)O)cs1	-1	-1.2%	-13%	-4%
CCN(C(=O)COC(=O)c1ccccc1NCc1ccco1)c1c(N)n(Cc2ccccc2)c(=O)[nH]c1=O	nt	-3.8%	33%	nt
CC[N+](CC)(CCCCS(=O)(=O)[O-])CCNP1(=O)C=C(c2ccccc2)OC(c2ccccc2)=C1	-13	0.0%	-8%	0%

Going on with the list.
SMILES	GLA inh pH 4.5	Rango complex inh	Rango release inh	miR-21 reporter
COc1ccc(NC(=O)CS(=O)CC(=O)Nc2ccc(OC)c(OC)c2)cc1 (stereo not drawn)	-1	4.8%	17%	-1%
Cc1cnn(C(=O)c2cc(-c3ccccn3)nc3ccc(Cl)cc23)c1	-3	?	-21%	0%
COn1c(-c2ccccc2)nc2c1CCc1c-2no[n+]1[O-]	1	-0.8%	-5%	-5%
O=C(NCC1CCCO1)C1CCN(C2CCN(Cc3ccco3)CC2)CC1 (stereo not drawn)	5	-2.4%	-8%	-3%
N#C/C(=C\c1c[nH]c2ccccc12)C(=O)Nc1ncc(Cc2ccc(Cl)cc2Cl)s1	-1	?	?	0%
COc1cccc(-c2cc(C(=O)Nc3ccccc3)c3ccccc3n2)c1	nt	-1.3%	-10%	nt
CCCCn1c(SCC(=O)NCc2ccco2)nnc1-c1ccoc1C	-4	?	-16%	-3%
COC(=O)CSc1nnc(SCc2ccccc2)s1	14	0.2%	-1%	7%
COc1ccc(CCNC(=O)c2cccnc2)cc1OC	-10	0.1%	14%	-2%
CC(C)(C)C(=O)Nc1ccc(/C=C/C(=O)c2ccco2)cc1	nt	?	?	-18%
CC(=O)n1cc(/C=N/NC(=O)c2ccccc2Cl)c2ccccc21	nt	-0.8%	48%	-20%
Cc1cc(C(=O)N/N=C2/CC(C)CC(C)(C)C2)c(C)o1 (stereo not drawn)	-7	-1.7%	7%	-15%
Cc1ccc(S(=O)(=O)NCCC(=O)Nc2ncccc2O)cc1C	nt	-0.7%	14%	nt
COc1cc(OC)cc(C(=O)N2CCN(C3CCCCC3)CC2)c1	nt	-1.3%	-4%	-1%
CCOc1ccc(NC(=S)Nc2cccc3cnccc23)cc1	4	?	22%	-9%
CCO[C@H]1OC(C(=O)NCc2ccccc2)=C[C@@H](C)[C@@H]1CCCO	3	-0.4%	9%	0%
Cc1nn(-c2ccccc2Cl)c(Cl)c1/C=C(\C#N)C(N)=O	-1	-0.5%	23%	-4%
O=C(C[C@H]1C[C@H](C(=O)N2CCCCC2)[C@@]2(CCc3ccccc3)c3[nH]c4cc(-c5ccco5)ccc4c3CCN2C1=O)NCc1cccc(C(F)(F)F)c1	nt	-3.4%	0%	nt
CCOCCCn1c(=S)[nH]c2cc(C(=O)NCC(OC)OC)ccc2c1=O	4	-1.6%	9%	1%
O=C(CN1C(=O)NC2(CCCC2)C1=O)OCc1ccc(Cl)cc1Cl	nt	3.0%	11%	nt
O=[N+]([O-])c1ccc2c(c1)nc1n2CCCCC1	4	0.3%	15%	-17%
Cc1ccc(/C=C/C(=O)N2CCN(S(=O)(=O)/C=C/c3ccccc3)CC2)o1	0	4.7%	2%	2%
Cc1cccc(NC(=O)CCCNC(=O)c2ccc(Cl)cc2)n1	nt	-4.9%	-6%	1%
O=C(CSCc1ccc(Cl)cc1Cl)Nc1nccs1	12	-7.1%	33%	-37%
O=C(Nc1ccc(OC(F)(F)F)cc1)c1cccc(-n2cnnn2)c1	nt	-3.1%	-14%	nt
CC1(C)C[C@H](O)[C@@]23C[C@@H](OC2=O)[C@]2(C)C(=CCC4[C@@]5(C)CC[C@H](O)C(C)(C)C5CC[C@]42C)[C@@H]3C1 (stereo partly drawn)	nt	0.8%	0%	nt
O=C(c1ccc(NS(=O)(=O)c2cccs2)cc1)N1CCN(c2ccccc2Cl)CC1	5	-1.1%	19%	-12%
O=C(Nc1ccc(Cl)cc1)c1csc(Cc2ccccc2)n1	-12	-0.9%	-5%	-34%
CCCc1cc(=O)oc2c(CN3CCN(C)CC3)c(O)ccc12	nt	?	?	3%
O=C(Nc1nnc(-c2ccccc2Cl)o1)c1ccco1	3	0.6%	1%	-7%
COc1cc2c(cc1OC)[C@@H](NC(=O)CCc1ccccc1)[C@H](OCc1ccccc1)C2	nt	7.8%	3%	nt
COc1ccc(C(=O)C2CCCN(Cc3c(C)[nH]c4ccccc34)C2)c(OC)c1 (stereo not drawn)	-2	nt	nt	0%
COc1ccc(/C=C2/C(=O)N(c3ccccc3)N=C2C)cc1OC	nt	-2.0%	6%	-2%
CN(c1ccccc1)c1nc(N)c([N+](=O)[O-])c(N2CCOCC2)n1	-6	0.3%	19%	-34%
O=C1CSC(c2ccc([N+](=O)[O-])cc2)N1c1ccc(O)cc1 (stereo not drawn)	nt	-0.3%	-4%	0%
COc1cc2sc(-c3ccc(S(C)(=O)=O)cc3)c(C(=O)NCc3ccc(C)o3)c2cc1OC	nt	-1.6%	-3%	nt
CCOc1ccc(CCNC(=O)Cc2ccc(NC(=O)C3=C(C)OCCS3)cc2)cc1	nt	-0.2%	3%	-23%
CS(=O)(=O)c1ccc(-c2nnn(CC(=O)Nc3ccc4c(c3)OCCO4)n2)cc1	nt	3.2%	-6%	-7%
O=C(CNC(=O)c1ccccc1F)N/N=C/c1ccc2c(c1)OCO2	nt	-1.0%	0%	-63%
CCCc1ccc(C2=Nn3c(nnc3C(C)C)SC2)cc1	nt	-0.1%	7%	21%
Cc1ccc(OCC(=O)NCCCNC(=O)c2cccnc2)cc1	nt	0.1%	4%	4%
CCOc1cc(/C=N/O)ccc1OS(=O)(=O)c1ccc(C)cc1	-2	0.9%	-18%	-6%
O=C(COC(=O)c1ccc(S(=O)(=O)C(F)F)cc1)NC(=O)NC1CCCCC1	nt	-1.7%	-8%	nt
C=CCN1C(=O)c2ccc(C(=O)N3CCN(S(=O)(=O)c4cccc(Cl)c4)CC3)cc2C1=O	nt	-0.9%	2%	-1%
O=C(O)CCCC(=O)N1N=C(c2ccccc2)CC1c1ccc2nccnc2c1 (stereo not drawn)	3	-2.3%	3%	-14%
CCOC(=O)C1=C(C)Nc2ncnn2C1c1cc(OC)ccc1OC (stereo not drawn)	0	9.3%	-9%	-9%
CC1=NN(C(N)=S)C(C)(C)C1	-3	?	19%	0%
C=CCn1c(O)c(N=Nc2ccccc2)c2ccccc21	nt	-1.3%	0%	-15%
Cc1cc(Br)c(S(=O)(=O)NCc2cccnc2)cc1C	nt	4.9%	-4%	1%
CCC(C)(C)NC(=O)C(c1ccncc1)N(C(=O)Cn1nnc2ccccc21)c1cc2c(cc1C(C)=O)OCO2 (stereo not drawn)	-21	-0.2%	-7%	0%

(list continues)
SMILES	GLA inh pH 4.5	Rango complex inh	Rango release inh	miR-21 reporter
COCCCNC(=O)NC(=O)c1ccccc1	3	-3.1%	2%	-16%
Cc1ccc(C(=O)N2CCN(S(=O)(=O)c3ccc(C)cc3)CC2)cc1	-1	3.5%	-5%	-2%
CCCCCCOc1ccc(OC(=O)c2ccncc2)cc1	1	3.5%	26%	-33%
O=C(NCc1cccs1)c1cc(-c2cccc(Cl)c2)on1	2	-2.5%	-3%	-28%
O=c1cc(COn2nnc3ccc(C(F)(F)F)cc32)nc2sccn12	3	-1.0%	-5%	-7%
COc1ccc(CNC(=O)CN2CCN(S(=O)(=O)c3cccs3)CC2)cc1OC	-3	-9.3%	?	-7%
CCN1CCN(C2=C(Cl)C(=O)N(Cc3ccccc3)C2=O)CC1	8	-0.4%	-20%	-2%
Cc1ccc(S(=O)(=O)N2CCOCC2)cc1NC(=O)COc1cccc(Oc2ccccc2)c1	nt	-1.7%	0%	nt
O=C1C2CCCN2C(c2ccc(F)cc2)N1c1cccc(Cl)c1 (stereo not drawn)	9	1.5%	9%	-4%
Cc1ccccc1C(=O)NC(=S)Nc1ncccn1	nt	-2.5%	3%	-31%
COc1ccc(C(=O)N2CCN(C3CCC(c4ccccc4)CC3)CC2)cc1OC (stereo not drawn)	-6	-4.8%	2%	13%
Cc1ccc(SCc2c(C(=O)N/N=C/c3ccoc3)nnn2-c2nonc2N)cc1	nt	3.9%	6%	0%
Cc1ccc(C(N)=S)c(C)c1	2	-0.3%	-8%	-8%
CN1CCC(NC(=O)Cc2c(F)cccc2Cl)CC1	-4	-2.4%	1%	-3%
O=C(CCCN1C(=O)/C(=C/c2cccc(Br)c2)SC1=S)Nc1cccnc1	8	0.3%	-8%	-1%
c1cncc(CSc2ccc(-c3cccs3)nn2)c1	4[21.1 µM]	0.2%	-4%	-38%
O=C(c1ccccc1F)N1CCOCC1	0	-0.9%	32%	0%
O=c1c2ccccc2nnn1CSc1nnc(-c2cccnc2)n1-c1ccccc1F	3	-1.4%	10%	-10%

Arranged by value in miR-21 reporter (largest number first): three from the list above
SMILES	GLA inh pH 4.5	Rango complex inh	Rango release inh	miR-21 reporter
O=C(CCCN1C(=O)/C(=C/c2cccc(Br)c2)SC1=S)Nc1cccnc1	8	0.3%	-8%	-1%
O=c1c2ccccc2nnn1CSc1nnc(-c2cccnc2)n1-c1ccccc1F	3	-1.4%	10%	-10%
c1cncc(CSc2ccc(-c3cccs3)nn2)c1	4[21.1 µM]	0.2%	-4%	-38%
